Bioassay records deposited in PubChem by National Center for Advancing Translational Sciences (NCATS).
EPAC1 ag val – validation of human EPAC1 agonists; Potency, µM, for the others: max response, positive = active, usual class: activators; O95398; EPAC1 Rap1b BODIPY-GDP exchange, fluorescence; 1% of 16,000 active; AID 1645883; active = well fitted activation curve with a large enough effect; inconclusive = small, poorly fitted or top-dose-only effect; inactive = no such curve, though single readings can be large or run the other way;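 note: nearly all actives have a fitted effect of over 70% in size; series mostly up to about 76 or 150 µM; scaled to a cAMP control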
Target sequence (O95398 whole entry, looked up): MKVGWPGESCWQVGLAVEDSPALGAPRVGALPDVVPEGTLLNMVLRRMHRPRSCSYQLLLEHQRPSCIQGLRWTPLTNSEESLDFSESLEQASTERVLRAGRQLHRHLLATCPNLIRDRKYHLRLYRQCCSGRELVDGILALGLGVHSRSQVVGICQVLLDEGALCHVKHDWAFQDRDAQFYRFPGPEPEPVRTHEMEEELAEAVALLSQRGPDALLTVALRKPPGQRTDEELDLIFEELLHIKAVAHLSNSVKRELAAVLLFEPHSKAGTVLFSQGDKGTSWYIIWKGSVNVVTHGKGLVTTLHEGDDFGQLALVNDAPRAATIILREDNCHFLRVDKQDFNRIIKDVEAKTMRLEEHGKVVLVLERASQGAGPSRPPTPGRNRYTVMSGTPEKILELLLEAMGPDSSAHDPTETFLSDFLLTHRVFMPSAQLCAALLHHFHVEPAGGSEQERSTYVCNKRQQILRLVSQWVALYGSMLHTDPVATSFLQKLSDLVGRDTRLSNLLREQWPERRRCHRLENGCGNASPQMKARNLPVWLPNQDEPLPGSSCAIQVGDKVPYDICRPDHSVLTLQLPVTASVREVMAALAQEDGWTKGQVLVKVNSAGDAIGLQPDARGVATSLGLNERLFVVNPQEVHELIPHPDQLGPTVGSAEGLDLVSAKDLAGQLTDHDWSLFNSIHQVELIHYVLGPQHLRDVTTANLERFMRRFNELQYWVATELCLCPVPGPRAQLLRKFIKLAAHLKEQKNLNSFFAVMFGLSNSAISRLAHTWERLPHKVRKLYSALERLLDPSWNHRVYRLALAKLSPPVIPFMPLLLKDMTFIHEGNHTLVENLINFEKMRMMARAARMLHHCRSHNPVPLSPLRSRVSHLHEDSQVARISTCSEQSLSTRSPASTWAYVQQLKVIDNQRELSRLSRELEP
* = called active by the depositor; u = inconclusive; & = joins results of further samples; [ ] = another dose, or the depositor's remark. % is set by controls: 0 for no effect and ±100 for the full control effect; potency is the fitted concentration of half-maximal effect. A portion of the library (hit frequency here may not be typical).

SMILES	EPAC1 ag val
CC(=O)N[C@@H](CSC/C=C(\C)CCC=C(C)C)C(=O)O	-8%&-6%
CN(C)CC[C@@H](c1ccc(Br)cc1)c1ccccn1	4%&-17%
O=C(c1ccccc1)C(c1ccccc1)[n+]1csc2ccccc21 (stereo not given)	12%
CC(C)NC[C@H](O)COc1cccc2ccccc12	-9%&-10%&-12%&1%
CCNc1ncc2nc(-c3cccc(C#N)c3)c(=O)n(CCC#N)c2n1	-1%
N#CCCn1c(=O)cnc2cnc(OCc3ccccc3)nc21	11%
NC(=NC1C2CC3CC(C2)CC1C3)Nc1ccc(I)cc1 (stereo not given)	-2%&2%&9%
COCC1CCCN(c2nc(CN3CCN(C(=O)c4ccco4)CC3)nc3ccccc23)C1 (stereo not given)	5%
Nc1ccc(Cc2ccc(C=O)cc2)cc1	u
Cc1ccc(-c2ccnc(-n3ncc(C(=O)NCCN4CCOCC4)c3C3CC3)n2)o1	-11%
CC[C@@]1(O)C[C@H](O[C@H]2C[C@H](N(C)C)[C@H](O[C@H]3C[C@H](O)[C@H](O[C@H]4CCC(=O)[C@H](C)O4)[C@H](C)O3)[C@H](C)O2)c2c(cc3c(c2O)C(=O)c2c(O)cccc2C3=O)[C@H]1C(=O)OC	18%
CN(C)C(=O)c1ccc(-c2nc(NC3CCNCC3)c3ccccc3n2)cc1	-9%
CN(C(Cc1ccc(OS(=O)(=O)c2cccc3cnccc23)cc1)C(=O)N1CCN(c2ccccc2)CC1)S(=O)(=O)c1cccc2cnccc12 (stereo not given)	-12%
COc1cccc(-c2nc(Nc3ccncc3)c3ccccc3n2)c1	100µM*
CN(C)c1ccc(-c2nc(N(C)Cc3ccco3)c3ccccc3n2)cc1	u
C=CCN1CCc2c(cc(O)c(O)c2Br)[C@@H](c2ccccc2)C1	-7%&17%
Cn1cccc1C(=O)N1CCC2(CCCN(Cc3ccncc3)C2)CC1	-26%
C=CC(=O)O	-9%
CC(C)C[C@@H](CO)N1CCN(CC(C)C)CCC1=O	-48%&25%[inhibitor]
CCCCCCCC(=O)CC[C@@H]1[C@@H](C/C=C\CCCC(=O)OC(C)C)[C@@H](O)C[C@H]1O	-216%[inhibitor]
O=C(CCCCCCCCCCCCC1CCCC1)Nc1ccc(S(=O)(=O)c2ccc(NC(=O)CCCCCCCCCCCCC3CCCC3)cc2)cc1	-48%[inhibitor]
COCCNc1nc(-c2ccccc2Cl)nc2ccccc12	30%
O=C1N=C2SCCN2C(=O)C1Cc1ccc(Cl)cc1 (stereo not given)	-2%
N#Cc1cccc(-c2cc(NCc3cccnc3)ncn2)c1	2%
C[C@]12CCC(=O)C=C1CC[C@@H]1[C@@H]2[C@@H](O)C[C@@]2(C)[C@H]1CC[C@]2(O)C(=O)CO	-2%
CC[C@@H](C(=O)[C@@H](C)[C@@H](O)[C@H](C)[C@@H]1O[C@@H]([C@@H](CC)C(=O)O)CC[C@@H]1C)[C@H]1O[C@]2(C=C[C@@H](O)[C@]3(CC[C@@](C)([C@H]4CC[C@](O)(CC)[C@H](C)O4)O3)O2)[C@H](C)C[C@@H]1C	u
COc1ccccc1-c1cc2c(c(OC)c1)OCCN(C(=O)Cn1nc(-c3ccccc3)c3ccccc3c1=O)C2	-5%
O=C1O[C@H](CO)[C@@H](O)[C@H](O)[C@H]1O	17%
OC/C=C/c1ccc(O)c(O)c1	-21%
COc1ccc(CNc2ncncc2-c2cccc(NS(C)(=O)=O)c2)c(OC)c1	13%
C[C@@H]1[C@H](O)[C@@H](C)/C=C/C=C\C=C\C=C\C=C\C=C\C=C\[C@H](O[C@@H]2O[C@H](C)[C@@H](O)[C@H](N)[C@@H]2O)C[C@@H]2O[C@](O)(C[C@@H](O)C[C@@H](O)[C@H](O)CC[C@@H](O)C[C@@H](O)CC(=O)O[C@H]1C)C[C@H](O)[C@H]2C(=O)O (stereo in doubt)	4%
COc1ccc(CN2CCCC(n3cc(C(=O)NC4CCCC4)nn3)C2)c2ccccc12 (stereo not given)	14%
COc1cccc(-c2nc(NCc3ccc(OC)cc3OC)c3ccccc3n2)c1	u
Cc1nc2cnc(Nc3ccccc3)nc2n(CCC#N)c1=O	5%
Clc1ccc2ncnc(NCc3ccc4c(c3)OCO4)c2c1	-19%
C=CCN1c2ccc(Br)cc2C(=O)CS1(=O)=O	u
COC(=O)c1ccccc1-c1cc(C)cc2c1OC(CNC(=O)c1cc(C)on1)C2 (stereo not given)	3%
CO[C@H]1C=CO[C@@]2(C)Oc3c(C)c(O)c4c(O)c(c(/C=N/N5CCN(C6CCCC6)CC5)c(O)c4c3C2=O)NC(=O)/C(C)=C\C=C[C@H](C)[C@H](O)[C@@H](C)[C@@H](O)[C@@H](C)[C@H](OC(C)=O)[C@@H]1C	-94%[inhibitor]
COc1cc2nc(N(C)C)c(CNCc3nonc3C)cc2c(OC)c1OC	9%
C[C@H]1OC(=O)CC[C@@H]2[C@]1(C)CCC1[C@@]2(C)CC[C@@]2(C)C3CC(C)(C)CC[C@]3(CO)CC[C@]12C (stereo not given in full)	-24%
COCCn1c(=O)c(C)nc2cnc(N3CCNCC3)nc21	-77%[inhibitor]
O=C1[C@H]2CCCC[C@H]2C(=O)N1CCCCN1CCN(c2nsc3ccccc23)CC1	-46%[inhibitor]
O=C(O)C[C@H]1c2cc(C(F)(F)F)ccc2S(=O)(=O)N1Cc1ccccc1	-4%
COCCn1c(=O)c(-c2ccccc2)nc2cnc(OC)nc21	11%
COc1cc(OC)c(OC)cc1CN1CCCC(c2[nH]ncc2-c2cccc(C(F)(F)F)c2)C1 (stereo not given)	-7%
COc1c(-c2coc3cc4c(cc3c2=O)CC(O)C(C)(C)O4)ccc2c1C=CC(C)(C)O2 (stereo not given)	-32%[inhibitor]
O=c1c(-c2ccccc2)nc2cnc(N3CCNCC3)nc2n1-c1ccccc1	-5%
CC(=O)OCC(=O)C1CCC2C3CCC4=CC(=O)CC[C@@]4(C)C3CC[C@]12C (stereo not given in full)	11%
CCN1CCCC1CNC(=O)c1cnn(-c2nccc(-c3cccs3)n2)c1C(C)C (stereo not given)	10%
Cn1c(=O)c(-c2ccccc2)nc2cncnc21	21%

An excerpt from above in order of length of the SMILES, ascending:
SMILES	EPAC1 ag val
COCCn1c(=O)c(C)nc2cnc(N3CCNCC3)nc21	-77%[inhibitor]
O=C(O)C[C@H]1c2cc(C(F)(F)F)ccc2S(=O)(=O)N1Cc1ccccc1	-4%
O=C1[C@H]2CCCC[C@H]2C(=O)N1CCCCN1CCN(c2nsc3ccccc23)CC1	-46%[inhibitor]

More entries follow.
SMILES	EPAC1 ag val
COc1ccc2c(c1)CCC1C2CC[C@@]2(C)C(O)CCC12 (stereo not given in full)	3%
O=C(c1csnn1)N1CCC2(CC1)CCN(c1ccccc1)CC2	-53%[inhibitor]
CCn1c(-c2ccccc2F)nc2cc(NC(C)=O)cc(C(=O)NCc3ncc(C)[nH]3)c21	-23%
O=C(O)c1ccc2c(c1)OCO2	-30%
Cc1cnc(CNc2cc(-c3ccccc3Cl)ncn2)cn1	-37%[inhibitor]
COc1cccc(Cn2c(=O)c(-c3ccc(Cl)cc3)nc3cnc(N4CCOCC4)nc32)c1	u
COc1ccc2c(c1)[C@@]1(C)CCC[C@](C)(CO)C1CC2 (stereo not given in full)	-14%
O=S(=O)(c1ccccc1)N1CCC[C@@]2(CCN(Cc3ccccc3)C2)C1	1%
COc1cc(=O)n2c(c1C(=O)NCc1nonc1C)CCN(C(=O)c1cccc(C)c1C)CC2	21%
CC(C)C[C@H](N)C(=O)N[C@H](C(=O)N[C@H](C(=O)N[C@@H](Cc1ccc(O)cc1)C(=O)N1CCC[C@H]1C(=O)N[C@@H](Cc1c[nH]c2ccccc12)C(=O)N[C@H](C(=O)N[C@@H](CCC(N)=O)C(=O)N[C@@H](CCCN=C(N)N)C(=O)O)[C@@H](C)O)C(C)C)C(C)C	-13%
CCN(C)C(=O)Oc1cccc([C@H](C)N(C)C)c1	5%
CCCCCCCCCCCCCCCC[n+]1ccc(C)c2ccccc21	-84%[inhibitor]
Cc1onc(-c2ccccc2)c1C(=O)NCCN1Cc2ccccc2OC(c2ccsc2)C1 (stereo not given)	-13%
CCN1CCC[C@H]1CNC(=O)c1c(OC)ccc(Br)c1OC	-21%&-12%
O=S1(=O)CCOCCCN1Cc1ccc(F)cc1	u
CC(=O)[C@@]1(O)CC[C@H]2[C@@H]3C=C(Cl)C4=CC(=O)CC[C@]4(C)[C@H]3CC[C@@]21C	3%
CC(C)Cn1c(=O)n(C)c(=O)c2[nH]cnc21	u
O=c1c(-c2ccc(F)cc2)nc2cnc(Oc3ccccc3)nc2n1C[C@H]1CCCO1	u
C=CC(C)(C)c1c2c(c(O)c3c(=O)c4ccc(O)c(O)c4oc13)C=CC(C)(C)O2	-84%[inhibitor]
Oc1c(Cl)cc(Cl)cc1Sc1cc(Cl)cc(Cl)c1O	-9%&-20%

Three entries out of the list above, arranged by the number in EPAC1 ag val, largest number first:
SMILES	EPAC1 ag val
CCN(C)C(=O)Oc1cccc([C@H](C)N(C)C)c1	5%
CC(=O)[C@@]1(O)CC[C@H]2[C@@H]3C=C(Cl)C4=CC(=O)CC[C@]4(C)[C@H]3CC[C@@]21C	3%
Cc1onc(-c2ccccc2)c1C(=O)NCCN1Cc2ccccc2OC(c2ccsc2)C1 (stereo not given)	-13%

More entries
SMILES	EPAC1 ag val
COC(=O)N1CCC[C@@]2(CCN(c3ccccn3)C2)C1	-33%[inhibitor]
CCCCN(CCC#N)c1ccc(/C=C/c2ccnc3ccccc23)cc1	100µM*
IC(I)I	8%
CCN(CC)CC(=O)Nc1c(C)cccc1C	-17%&38%&-11%&-11%
CC1(C)O[C@@H]2C[C@H]3[C@@H]4C[C@H](F)C5=CC(=O)CC[C@]5(C)[C@H]4[C@@H](O)C[C@]3(C)[C@]2(C(=O)CO)O1	-13%
COc1ccc(CNc2nc(-c3ccc(N(C)C)cc3)nc3ccccc23)c(OC)c1	u
CC[C@H]1CN2CCc3cc(OC)c(OC)cc3[C@@H]2C[C@@H]1C[C@H]1NCCc2cc(OC)c(OC)cc21	-9%
CNC1C(O)[C@@H]2OC(O[C@@H]3C(O)C(O)C(N)C[C@H]3N)C(N)C[C@H]2O[C@H]1O[C@@H]1OC(CO)C(N)C(O)C1O (stereo not given in full)	3%
CCCCS(=N)(=O)CCC(N)C(=O)O (stereo not given)	11%&19%
CS(=O)(=O)Nc1ccc([N+](=O)[O-])cc1OC1CCCCC1	-11%&-19%

In another format: results already given.
> CNC1C(O)[C@@H]2OC(O[C@@H]3C(O)C(O)C(N)C[C@H]3N)C(N)C[C@H]2O[C@H]1O[C@@H]1OC(CO)C(N)C(O)C1O (stereo not given in full)
- EPAC1 ag val = 3%

> CS(=O)(=O)Nc1ccc([N+](=O)[O-])cc1OC1CCCCC1
- EPAC1 ag val = -11%&-19%

> CC[C@H]1CN2CCc3cc(OC)c(OC)cc3[C@@H]2C[C@@H]1C[C@H]1NCCc2cc(OC)c(OC)cc21
- EPAC1 ag val = -9%

Next part:
SMILES	EPAC1 ag val
Cc1ccc(S(=O)(=O)NC(=O)NC2CCCC2)cc1	-5%
COc1cc(-c2ccc(=O)[nH]n2)ccc1OC(F)F	6%&-2%&7%
NC1=NCCN1CC(=O)O	-28%
CCN(CC)CCOc1ccc2nc(N(C)C)sc2c1	-13%
NC(=O)c1ccc[n+]([C@@H]2O[C@H](COP(=O)([O-])OP(=O)(O)OC[C@H]3O[C@@H](n4cnc5c(N)ncnc54)[C@H](O)[C@@H]3O)[C@@H](O)[C@H]2O)c1	0%&-7%
COc1cccc(C(=O)N(Cc2cc3cc4c(cc3nc2N(C)C)OCO4)CC2CCCO2)c1 (stereo not given)	24%
CNc1nc(-c2ccccc2CN(C)C)nc2ccccc12	0%
O=C(Nc1nccs1)[C@@H]1CC=C[C@@H]2CCN(Cc3ccccc3)C(=O)[C@@H]21	-9%
CCC(=O)OC(OP(=O)(CCCCc1ccccc1)CC(=O)N1C[C@H](C2CCCCC2)C[C@H]1C(=O)O)C(C)C (stereo not given in full)	-36%[inhibitor]
O=C1CC[C@H](N2C(=O)c3ccccc3C2=O)C(=O)N1	7%
CCC(=O)c1ccc2c(c1)N(CCCN1CCN(CCO)CC1)c1ccccc1S2	8%
O=Nc1c(-c2c(O)[nH]c3ccccc23)[nH]c2ccccc12	-3%&-21%&-1%
Cc1cc2c(c(-c3nc4ccccc4s3)c1)OC(CNC(=O)c1occc1C)C2 (stereo not given)	4%
Oc1cc(O)cc(O)c1	-3%
Cc1cc(OCCOCC[N+](C)(C)Cc2ccccc2)ccc1C(C)(C)CC(C)(C)C	-18%
Cc1ncc2c(c1CNC(=O)CN1CCCCC1)CCN(C(=O)c1ccc(F)cc1Cl)C2	5%
CC1c2ccccc2CN1CC1=NCCN1 (stereo not given)	-6%
Cc1oc(-c2ccccc2NC(=O)c2ccccc2)nc1CNC(=O)c1cccc(-n2cccn2)c1	6%
O=C1CCN(Cc2ccccc2)CCN1CCOc1ccccc1	-15%
O=C(NCCNCC(O)COc1ccc(O)cc1)N1CCOCC1 (stereo not given)	-26%
C[C@H](O)CO[C@H]1[C@H]2O[C@H]3[C@H](O)[C@@H](O)[C@@H](O[C@H]4[C@H](O)[C@@H](O)[C@@H](O[C@H]5[C@H](O)[C@@H](O)[C@@H](O[C@H]6[C@H](O)[C@@H](OC[C@H](C)O)[C@@H](O[C@H]7[C@H](O)[C@@H](OC[C@H](C)O)[C@@H](O[C@H]8[C@H](O)[C@@H](O)[C@@H](O[C@@H]([C@@H]1O)[C@@H](CO)O2)O[C@@H]8CO)O[C@@H]7CO)O[C@@H]6CO)O[C@@H]5CO)O[C@@H]4CO)O[C@@H]3CO	10%
COc1cc(NCc2ccc3nc(N)nc(N)c3c2C)cc(OC)c1OC	u
CS(=O)(=O)N1CCC[C@@]2(CCN(c3ccncc3)C2)C1	-34%[inhibitor]
